Bioassay records (PubChem)
Hsc70 ATP site – small molecules displacing fluorescent ligand from Hsc70 – biochemical, fluorescence polarization, primary screen (AID 568); 83,000 tested, under 10 active; displacement, % at 20 µM; hits with a dose series show IC50 in µM; Hsc70 fluorescence polarization, probe displacement; higher % means a stronger effect; strong numbers were not always called active;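 active means displacement above 50% without optical interference and an IC50 on retest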;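 further: ATPase domain with a fluorescein-tagged ATP probe; 0% = vehicle and 100% = excess ADP; read after one hour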
MT1-MMP reporter – MT1-MMP gene expression reporter suppression – cell-based, luciferase reporter, luminescence (AID 618); MT1-MMP promoter luciferase reporter cells, luminescence; calls from a first round at 10 µM; hits with a dose series show EC50 in µM; 87,000 compounds, 0.62% hits;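 active means over half of the reporter light lost at 10 µM or EC50 under 50 µM; inactive means the rest and hits that failed the dose series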;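 further: actives suppress MT1-MMP promoter-driven transcription so potencies describe inhibitors; HT1080 fibrosarcoma cells; overnight exposure; toxic or luciferase-blocking compounds were not removed from the actives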
WNV NS2B-NS3 inh – blocks West Nile virus NS2B-NS3 protease activity; P06935; WNV NS2B-NS3 protease, fluorogenic substrate Ex360/Em465; hits give low values; z-score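 (tested at a level between 10 and 100 µM)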; 65,000 compounds, 0.18% hits;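 active means z-score at -3 or under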;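 further: score is relative to mean and spread of the compound wells of a plate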
Target sequence (P06935 1371-1501 limits assumed): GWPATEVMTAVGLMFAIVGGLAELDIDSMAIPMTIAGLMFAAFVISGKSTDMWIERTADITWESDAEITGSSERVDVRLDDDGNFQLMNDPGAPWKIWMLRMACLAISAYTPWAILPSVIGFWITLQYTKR
Target sequence (P06935 1502-1679 limits assumed): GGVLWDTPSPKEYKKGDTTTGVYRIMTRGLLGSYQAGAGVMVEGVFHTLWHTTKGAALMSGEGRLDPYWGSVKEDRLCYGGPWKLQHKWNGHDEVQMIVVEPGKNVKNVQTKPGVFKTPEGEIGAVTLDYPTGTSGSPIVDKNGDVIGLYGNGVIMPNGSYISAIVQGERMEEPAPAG
* hit, by the source's call; i = inactive; . = not tested or not shown.

nr	canonical_smiles	Hsc70 ATP site	MT1-MMP reporter	WNV NS2B-NS3 inh
1	Cc1nc(NC2=NCN(CCCN3CCOCC3)CN2)nc2c(C)cccc12	-0.9%	34µM*	-0.2
2	c1ccc2c(c1)NC1(CCCC1)n1c-2nc2ccccc21	1.5%	i	1.7
3	Cc1ccc(OCc2nc(C#N)c(NCCCn3ccnc3)o2)cc1	-2.7%	i	1.8
4	CC(NC(=O)OCc1ccccc1)C(=O)N1CC(O)CC1C(=O)O (stereo not given)	2.7%	i	-0.62
5	COc1ccc(NS(=O)(=O)c2cccc3nonc23)c(OC)c1	1.5%	i	.
6	c1ccc(-n2nnc3cnccc32)cc1	-9.4%	i	-0.15
7	COc1ccccc1N(CC(=O)NC(C)(C)C)C(=O)C1CSC(=O)C1 (stereo not given)	3.4%	i	.
8	O=C(CCN1C(=O)c2ccccc2C1=O)Nc1ccc2c(c1)OCCO2	-2.5%	i	0.39
9	CCc1nnc(NS(=O)(=O)c2ccc(NC(=O)OC)cc2)s1	-6.8%	i	-1.1
10	COc1ccc(C)cc1NC(=O)c1cc2cc3ccc(C)cc3nc2o1	1.5%	i	-1
11	O=C(CSc1nnc(CNC(=O)c2cccs2)o1)Nc1cccc(C(F)(F)F)c1	-5.0%	i	-1
12	CC1(c2ccccc2Cl)NC(=O)N(CC(=O)NC(=O)NCc2ccco2)C1=O (stereo not given)	3.1%	i	0.05
13	O=C1C=C(NCc2ccco2)CCC1	4.8%	i	-0.73
14	COCCNC(=O)C(=O)NCCN1CCOCC1	1.5%	i	.
15	COc1ccccc1-n1c(SCC(=O)Nc2ccc(C)cc2)nc(O)cc1=O	1.3%	i	.

Shown with two lines to a compound: 4 of the compounds above.
The line under a structure holds: Hsc70 ATP site, MT1-MMP reporter, WNV NS2B-NS3 inh
2) c1ccc2c(c1)NC1(CCCC1)n1c-2nc2ccccc21
  1.5%, i, 1.7
4) CC(NC(=O)OCc1ccccc1)C(=O)N1CC(O)CC1C(=O)O (stereo not given)
  2.7%, i, -0.62
15) COc1ccccc1-n1c(SCC(=O)Nc2ccc(C)cc2)nc(O)cc1=O
  1.3%, i, .
5) COc1ccc(NS(=O)(=O)c2cccc3nonc23)c(OC)c1
  1.5%, i, .

Following part
nr	canonical_smiles	Hsc70 ATP site	MT1-MMP reporter	WNV NS2B-NS3 inh
16	C=CCn1c(SCC(=O)NC2CCS(=O)(=O)C2)nc2scc(C3CC3)c2c1=O (stereo not given)	-3.7%	i	0.29
17	CCOC(=O)c1c(C)sc(Sc2ccc(Cl)cc2[N+](=O)[O-])c1OC	-3.2%	i	.
18	N#C/C=C1\Sc2ccccc2C(=O)N1CC(=O)N1CCN(S(=O)(=O)c2ccccc2)CC1	2.7%	i	0.54
19	c1ccc(-c2ccccc2-n2cnnn2)cc1	-2.4%	i	-0.76
20	COc1cccc(N2CC(C(=O)Nc3c(C)cccc3C)CC2=O)c1 (stereo not given)	-1.5%	i	1.9
21	CCCCOC(=O)Nc1cc(C(=O)OC)ccc1C(=O)OC	-8.4%	i	0.86
22	Cc1ccc(-c2nnn(CC(=O)N3CCN(c4nc5ccccc5s4)CC3)n2)cc1	1.0%	i	1.6
23	COc1cc2nc(CN3CCN(c4ncc(C(F)(F)F)cc4Cl)CC3)[nH]c(=O)c2cc1OC	-3.8%	i	-1.3
24	CCN1CCCC1CNC(=O)Cn1cnc2ccc(S(=O)(=O)N3CCC(C)CC3)cc2c1=O (stereo not given)	-3.3%	i	0.03
25	COc1ccc(-n2c(C)c(C(C)=O)c3cc(O)ccc32)cc1	-1.0%	i	0.62
26	NC(=O)c1ccc(NC(=O)c2ccc(CN3CCOCC3)cc2)cc1	-0.7%	i	.
27	c1csc(Cc2nc3ccccc3[nH]2)c1	-3.9%	i	0.45
28	Cn1c(=O)c(NCCc2ccccc2)c2c3c(cccc31)C(=O)c1ccccc1-2	169%	i	.
29	COC(=O)C1=C(N)OC2=C(C(=O)CC(C)(C)C2)C1c1ccoc1 (stereo not given)	-2.0%	i	0.39
30	CCc1cc2c(=O)c(-c3cscn3)coc2c(CN(C)C)c1O	2.8%	i	-0.91
31	CCCCOC(=O)Nc1nnc(COc2ccccc2)s1	-3.1%	i	-1.4
32	O=S(=O)(/N=C/c1c(O)ccc2ccccc12)c1cccs1	1.1%	i	.
33	CC1(C)CC(=O)C2=C(C1)N(c1cccc(O)c1)C1=C(C2)C(=O)CC(C)(C)C1	6.0%	i	1.1
34	CNc1nc2c(C)cccn2c(=O)c1C=NCc1ccccc1	0.7%	i	.
35	COc1ccc(N2C(=O)C3C4C=CC(C4)C3C2=O)nn1 (stereo not given)	1.2%	i	-1.3
36	CCc1cc2c(=O)c(-c3nc4ccccc4n3C)c(C(C)C)oc2c(CN2CCN(C)CC2)c1O	-4.7%	i	0.34
37	CCCc1cc(C(=O)Nc2sc(C(C)=O)c(C)c2C(=O)OCC)no1	3.0%	i	-0.93
38	CCOC(=O)CCc1nc2ccccc2[nH]1	-1.8%	i	0.9
39	CCOC(=O)N1CCC(NCCNC(=O)c2ccc(Cl)cc2)CC1	5.9%	i	-1.5
40	Cc1cc(C(N)=O)c2cc(Br)ccc2n1	-0.6%	i	-0.63
41	Cc1cc(C)nc(NS(=O)(=O)c2ccc(NS(=O)(=O)c3ccccc3)cc2)n1	6.5%	i	.
42	O=C(NCc1ccco1)C1CCN(S(=O)(=O)N2CCC3(CC2)OCCO3)CC1	-5.0%	i	0.18
43	COc1ccccc1-c1cc(C(=O)Nc2cc(C)n(Cc3ccc(Cl)cc3)n2)no1	-8.4%	i	1.3
44	CNC(=O)/C(=N\O)c1ccccc1	9.8%	i	0.26
45	CN(C)c1ccc(/C(=N\O)c2ccccc2)cc1	2.7%	i	-0.77
46	Cc1ccc(-c2nn3c(C)nnc3s2)cc1NC(=O)c1cccnc1	-4.7%	i	0.21
47	C=CCNc1nc(N)c(C(=O)Nc2cc(C)on2)s1	8.2%	i	0.27
48	CCCC(=O)N1CCc2cc(OC)c(OC)cc2C1c1cc2cc3c(cc2[nH]c1=O)OCO3 (stereo not given)	-0.6%	i	.
49	Cc1ccc(S(=O)(=O)O)c(C)c1N1CCCC1=O	-7.3%	i	0.34
50	CCc1ccccc1N1CSC2=C(C#N)C(c3ccccc3F)CC(=O)N2C1 (stereo not given)	0.9%	i	-0.95
51	OC[C@H]1O[C@@H](n2cnc3c(NC4CCCC4)ncnc32)[C@H](O)[C@@H]1O	2.0%	i	-2
52	Cc1cc(NCCN(C)C)n2nc(-c3cccs3)cc2n1	-3.3%	i	0.32
53	Cc1ccc(Cn2c(SCc3cccnc3)nc3c2c(=O)n(C)c(=O)n3C)cc1	-1.4%	i	-0.25
54	O=C1C2C(C(=O)N1Cc1ccco1)C1C=CC2C12CC2 (stereo not given)	0.8%	i	0.27
55	Cc1cccc(NCc2ccccc2O)c1C	5.8%	i	-1.1
56	CC1CCCN(CC(O)COc2ccc(Cl)cc2)C1 (stereo not given)	-3.0%	i	1.7
57	C/C(=N\O)c1ccc2[nH]ccc2c1	-1.6%	i	-0.01
58	Cc1noc(C)c1COC(=O)Cc1ccc(Cl)c(Cl)c1	-1.5%	i	0.64
59	C=CCNS(=O)(=O)c1ccc(OC)c(C)c1	0.0%	i	0.22
60	Cn1cccc1C(=O)NC(=O)COC(=O)Cc1coc2ccc3ccccc3c12	-15%	i	-1.2
61	CCOc1cccc(N2C(=O)CC(NCc3ccc(S(N)(=O)=O)cc3)C2=O)c1 (stereo not given)	5.3%	i	-0.71
62	CCOc1ccc(N2Cc3ncccc3C2=O)cc1	-6.6%	i	0.03
63	COc1cc2cc(C(c3nnnn3C(C)(C)C)N3CCc4ccccc4C3)c(=O)[nH]c2cc1OC (stereo not given)	-0.1%	i	-0.15
64	CC(=O)Nn1cnc2c(c1=O)C1(CCCCC1)Cc1ccccc1-2	2.6%	i	.
65	Cc1c(Cl)cccc1NC(=O)CCN1CCCC(C)C1 (stereo not given)	2.5%	i	-0.34
66	O=c1[nH]c2ccc(S(=O)(=O)N3CCN(c4ccccc4F)CC3)cc2s1	-5.4%	i	-0.71
67	c1ccc(-c2noc(C34CC5CC(CC(C5)C3)C4)n2)cc1	5.5%	i	.
68	CCn1c(SCC(=O)Nc2nc(C)cs2)nnc1-c1ccco1	4.1%	i	-1.5
69	O=C(c1ccccc1)c1ccncc1	6.9%	i	-0.63
70	Cc1ccc(N(O)C(=O)OCCNC(=O)Nc2ccccc2)cc1	1.7%	i	-0.11
71	CCCCCCc1nnc(NC(=O)OCC)s1	5.8%	i	1.6
72	O=C(c1ccco1)N1CCN(c2ccc(Cl)cc2)CC1	0.8%	i	-0.29
73	NC(=O)c1ccccc1N/C=C/C(=O)c1ccco1	5.3%	i	-0.52
74	COC(=O)c1c(NC(=O)c2nc3ccccc3s2)sc2c1CCN(C(C)=O)C2	1.9%	i	0.48
75	N#CC1=C(N)C(C#N)(C#N)C(c2ccc[nH]2)C2CCCC=C12 (stereo not given)	-38%	i	-1.2

Given with values under each structure: part of the list above
Sequence of screens: Hsc70 ATP site	MT1-MMP reporter	WNV NS2B-NS3 inh
40: Cc1cc(C(N)=O)c2cc(Br)ccc2n1
  -0.6%	i	-0.63
75: N#CC1=C(N)C(C#N)(C#N)C(c2ccc[nH]2)C2CCCC=C12 (stereo not given)
  -38%	i	-1.2

(cont.)
nr	canonical_smiles	Hsc70 ATP site	MT1-MMP reporter	WNV NS2B-NS3 inh
76	Cc1n[nH]c(C)c1S(=O)(=O)N1CCN(c2ccccn2)CC1	-1.0%	i	0.21
77	COc1ccc(CC(=O)NCC2(c3ccc(OC)c(OC)c3)CCOCC2)cc1	5.9%	i	.
78	CC(C)(C)Nc1c(N)c(=O)oc2ccccc12	4.2%	i	-1.1
79	Cc1ccc(C(=O)Nc2ncc(Cc3ccc(F)cc3)s2)o1	-3.0%	i	-1.2
80	O=C(N1CCOCC1)N1CCC(c2nc(-c3ccc(S(=O)(=O)N4CCOCC4)cc3)no2)CC1	3.2%	i	.
81	Cn1cc(S(=O)(=O)N2CCN(C(=O)c3ccco3)CC2)c(=O)n(C)c1=O	0.4%	i	0.34
82	Cc1occc1-c1nnc(SCC(=O)N2CCCc3ccccc32)n1Cc1ccco1	3.4%	i	-0.25
83	O=C(Nc1ccc(F)cc1)N1CCOCC1	-2.6%	i	1.1
84	COc1ccccc1N1CCN(C(=O)c2ccccc2Oc2ccccc2)CC1	-2.5%	i	0.87
85	Cc1cc(C)n(-c2nc(C)nc3sc4c(c23)CCC(C)C4)n1 (stereo not given)	-3.0%	i	0.92
86	O=C(O)c1cccc(N2C(=O)CCC2=O)c1	1.3%	i	-0.2
87	Cc1cc(C)nc(CC(N)=O)n1	-2.1%	i	-0.49
88	COc1cc2c(C#N)c(N3CCCCC3)nc(N)c2c(N)n1	-6.3%	i	1.4
89	c1ccc(N2CCN(c3ncccn3)CC2)cc1	-5.6%	i	.
90	CCNc1c(N)c(=O)oc2ccccc12	-5.6%	i	-0.9
91	O=C1c2ccccc2C(=O)N1Cc1ccc2c(c1)OCO2	3.8%	i	0.48
92	CC1(C)Cc2c(c(-c3ccccc3)[nH]c(=O)c2C#N)CO1	0.3%	i	-0.91
93	CS(=O)(=O)Nc1ccc(Br)cc1C(=O)c1ccccc1	-1.8%	i	.
94	CC(=O)Nc1ccc(S(=O)(=O)NCc2ccc(C)cc2)cc1	-0.6%	i	.
95	COc1ccc2[nH]c(=O)c(CN(C)C(=O)C3CCCCC3)cc2c1	9.0%	i	-0.27
96	O=C(Oc1nsnc1N1CCOCC1)N1CCOCC1	-3.6%	i	-1.4
97	Cc1ccsc1CN1CCN(c2ccccn2)CC1	3.3%	i	-0.12
98	Cc1c(F)cccc1NC(=O)CSCC(=O)Nc1ccccc1	-1.8%	i	.
99	CC(C)c1ccc(NS(=O)(=O)c2ccc3[nH]cc(C(=O)N4CCC(C(N)=O)CC4)c(=O)c3c2)cc1	-5.0%	i	0.52
100	O=C(Nc1ccc(Cl)cc1)[C@@H]1[C@@H]2C(=O)N(c3ccc(Cl)cc3Cl)C(=O)[C@@H]2[C@H]2C=CC=NN21	-2.0%	i	.
101	O=C(c1ccccc1)N1CCN(C2CCCCC2)CC1	-3.5%	i	.
102	Cc1noc(C)c1COC(=O)CCCc1c[nH]c2ccccc12	-4.7%	i	-1.2
103	Cc1cc(C)nc(N2CCC(C(=O)NCCc3ccccc3)CC2)n1	0.5%	i	0.07
104	Cc1cc(C)c2nc(SCC#N)cc(C)c2c1	-4.2%	i	-0.76
105	Cc1ccc(C)c2[nH]c(=O)c(CCNC(=O)CC(C)(C)C)cc12	-4.1%	i	0.26
106	COc1ccc(-n2nnnc2SCC(=O)N2C(C)CCCC2C)c(OC)c1 (stereo not given)	-3.9%	i	0.75
107	O=C(NC1CCCCC1)C(c1ccco1)N(Cc1ccco1)C(=O)c1ccco1 (stereo not given)	-2.2%	i	1.4
108	N#CCCNCC1(c2ccccc2)CCCC1	-2.2%	i	-0.56
109	Cc1ccc(C2/C(=C(\O)c3c(C)nc4ccccn34)C(=O)C(=O)N2CCCN(C)C)o1 (stereo not given)	3.2%	i	-0.12
110	CC1(C)NC(=O)N(CCCCOc2ccc3c(c2)CCC3)C1=O	1.0%	i	0.88
111	Cc1occc1-c1nnc(SCC(=O)NCc2ccco2)n1CC(C)C	-3.2%	i	-0.89
112	CC(=O)Nc1cc2c(cc1C(=O)c1ccc(C)cc1)OCCO2	2.0%	i	1.2
113	CC(C)(c1ccccc1)c1ccc(OCCn2cnc3ccccc3c2=O)cc1	5.5%	i	.
114	O=C(O)COc1cccc2nsnc12	-1.6%	i	-0.05
